StopGo reporter – lowers the luciferase signal of an FMDV 2A StopGo reporter | 1.2% of 410,000 active | Potency, µM (titrated, usually from 57.9 µM), inactives show at the highest dose signal change, negative = less light | human cells with a luciferase reporter of 2A StopGo recoding; control for the full effect not named in the record; active = well fitted falling curve with a large enough effect; inconclusive = small, poorly fitted or top-dose-only effect; inactive = no such curve, though single readings can be large or run the other way; tested in HEK293T cells; also: % is scaled to controls: 0 for no effect and ±100 for the full control effect; nearly all actives have a fitted effect of over 45% in size; luciferase light after 4 h
NS1 inh – influenza NS1 inhibition | 0.4% of 270,000 active | S. cerevisiae slowed by influenza A NS1, growth recovery by OD600 | Potency, µM (highest dose often 46.1 µM), for the others: at the highest dose activity, positive = more growth | AID 2326; active means well fitted rising curve with a large enough effect; inconclusive means small, poorly fitted or top-dose-only effect; inactive means no such curve, though single readings can be large or run the other way; also: nearly all actives have a fitted effect of over 50% in size
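A cell-based growth assay was used: compounds that relieve NS1-induced slow growth of budding yeast raise OD600. Assay medium was yeast nitrogen base with ammonium sulphate and -URA supplement, pH 6.0, with 2% galactose.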
RE007 growth inh – less growth of the S. pombe RE007 Vpr strain; AID 651644; S. pombe RE007 Vpr strain, BacTiter-Glo ATP luminescence, 24 h; control for the full effect not named in the record; 0.21% of 360,000 active; Potency, µM (highest dose often 92.2 µM), for the others: at the top dose activity change, negative = less growth; active = well fitted falling curve with a large enough effect; inconclusive = small, poorly fitted or top-dose-only effect; inactive = no such curve, though single readings can be large or run the other way;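 also: % is scaled to controls: 0 for no effect and ±100 for the full control effect; nearly all actives have a fitted effect of over 50% in size; the assay follows cell death caused by Vpr and the record does not say whether a fall means rescue or toxicity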
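Fission yeast strain RE007, carrying one chromosomally integrated HIV-1 vpr copy, was seeded at OD 0.01 in PMG+AL medium with 23 nL pinned compound. After 24 h at 30 °C and 99% humidity, viability was read by BacTiter-Glo luminescence.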
SARS PLP yeast – SARS-CoV PLP inhibition in yeast | S. cerevisiae expressing SARS-CoV PLpro, growth rescue; control for the full effect not named in the record | Potency, µM (titrated, usually from 32.9 µM), without a hit: at the top dose activity, positive = growth rescue | 0.19% of 330,000 active; active means well fitted rising curve with a large enough effect; inconclusive means small, poorly fitted or top-dose-only effect; inactive means no such curve, though single readings can be large or run the other way; also: 0% is about no effect; nearly all actives have a fitted effect of over 55% in size; growth read by luminescence after 48 h
Cruzain inh noDet – cruzain (T. cruzi) inhibition without detergent; Potency, µM, inactives show max response, negative = inhibition, most hits filed as inhibitors; P25779; 2.3% of 200,000 active; purified cruzain, Z-FR-AMC fluorescence, no detergent;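 also: plate controls were enzyme without inhibitor for no effect and buffer without enzyme for full effect; nearly all actives have a fitted effect of over 40% in size; top concentration of the series not given in the record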
Target sequence (P25779 123-467 limits assumed): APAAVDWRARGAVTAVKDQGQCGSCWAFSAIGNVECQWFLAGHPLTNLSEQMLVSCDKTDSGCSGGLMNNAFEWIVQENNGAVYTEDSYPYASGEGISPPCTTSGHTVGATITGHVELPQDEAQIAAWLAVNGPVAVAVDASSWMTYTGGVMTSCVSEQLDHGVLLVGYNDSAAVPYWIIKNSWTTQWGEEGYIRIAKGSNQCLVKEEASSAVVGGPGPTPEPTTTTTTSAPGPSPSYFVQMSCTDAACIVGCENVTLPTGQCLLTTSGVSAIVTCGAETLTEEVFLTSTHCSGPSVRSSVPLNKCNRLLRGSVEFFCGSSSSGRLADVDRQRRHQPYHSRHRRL
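Detergent-free condition (0.00005% Triton X-100) in acetate buffer pH 5.5 with DTT. 1.5 nM enzyme and compound were pre-mixed 15 min, then 2 uM Z-FR-AMC substrate added; reaction progress from fluorescence change between first and third reads (60 s).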
LASV entry inh – Lassa virus entry inhibition; Lassa virus pseudotype entry inhibition, cell reporter; control for the full effect not named in the record; Potency, µM (series often up to 37.9 µM), for inactives: at the top dose activity change, negative = inhibition, actives largely listed as inhibitors; 1.2% of 300,000 active; AID 540256; active means well fitted inhibition curve with a large enough effect; inconclusive means small, poorly fitted or top-dose-only effect, or effect the other way; inactive means flat fitted curve, though single readings scatter; tested in HEK293 cells; also: % is scaled to controls: 0 for no effect and ±100 for the full control effect; nearly all actives have a fitted effect of over 50% in size; luciferase read-out
MARV entry inh – blocks Marburg virus binding to or entry into cells; Potency, µM (top dose mostly 37.8 µM), for the others: at the top dose activity change, negative = inhibition, usual class: inhibitors; 1.8% of 300,000 active; AID 540276; Marburg virus pseudotyped entry inhibition, cell reporter; control for the full effect not named in the record; about a third of the inactives were read at about 46 µM; active = well fitted inhibition curve with a large enough effect; inconclusive = small, poorly fitted or top-dose-only effect, or effect the other way; inactive = flat fitted curve, though single readings scatter; tested in HEK293 cells; about a fifth of its hits are not listed in these tables; also: % is scaled to controls: 0 for no effect and ±100 for the full control effect; luciferase read-out
Cruzain inh Det – cruzain (T. cruzi) inhibition with detergent; Potency, µM, without a hit: max response, negative = inhibition, usual class: inhibitors; 0.43% of 200,000 active; purified cruzain, Z-FR-AMC fluorescence, 0.01% Triton; P25779;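 also: plate controls were neutral wells for no effect and buffer without enzyme for full effect; nearly all actives have a fitted effect of over 40% in size; top concentration of the series not given in the record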
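Z-FR-AMC hydrolysis (2 uM substrate) by cruzain (1.5 nM) monitored kinetically at ex 360/em 450 nm after 15 min room-temperature compound exposure; 0.01% Triton X-100, pH 5.5, 5 mM DTT.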
* = called active by the depositor; ? = inconclusive; · = no result given; [ ] = dose if it differs, or a comment. Unless noted, calls follow the shape of the dose curve; as a rule, active = well fitted curve in the direction sought with a large enough effect; inconclusive = small, poorly fitted or top-dose-only effect, or another doubt; inactive = no such curve, though single readings can be large; an effect the other way counts as inactive or inconclusive. Potency is read from the fitted curve at half-maximal effect.

compound | StopGo reporter | NS1 inh | RE007 growth inh | SARS PLP yeast | Cruzain inh noDet | LASV entry inh | MARV entry inh | Cruzain inh Det
CCOC(=O)N1CCN(C(=O)c2c(O)c3cccc4c3n(c2=O)CC4)CC1 | 3% | -4% | 24% | 7% | 5% | -1% | 12% | 2.6%
COc1ccccc1CNC(=O)C(=O)NCC(c1ccco1)S(=O)(=O)c1cccs1 (stereo unspecified) | -17% | · | · | · | 7% | ? | · | -1.7%
Cc1nc(N[C@@H](Cc2c[nH]c3ccccc23)C(=O)O)c2oc3ccccc3c2n1 | · | ? | -2% | -3% | 10% | 21% | 1% | -9.0%
CCN(CC)CCCNc1nc2ccccc2c2[nH]c3ccc(OC)cc3c12 | -6% | · | 5% | · | · | ? | ? | ·
C/C(=N\NC(=O)c1ccc(Cl)c(Cl)c1)c1ccc(Br)s1 | -12% | 11% | 2% | 15% | 25µM* | ? | ? | 2.2%
CCCCCSc1nnc2c(n1)OC(c1ccc(C)s1)N(C(C)=O)c1ccccc1-2 (stereo unspecified) | -18% | · | · | · | 28% | -25%[46.1 µM] | ? | -11%
CC1CC(C)CN(C(=O)C(NS(=O)(=O)c2ccc(Br)s2)c2ccccc2)C1 (stereo unspecified) | 0% | -27% | 8% | -42% | 18% | ? | ? | -7.3%
CCOc1ccccc1NC(=S)NC(=O)c1ccco1 | -24% | -27% | -10% | 5% | · | -4%[46.1 µM] | -17%[46.1 µM] | ·
CSc1ncnc2c1cnn2-c1ccc(C)cc1C | 0% | · | 12% | -6% | · | 26% | -17% | ·
Cn1c(=O)c2c(nc(CN3CCc4ccccc4C3)n2Cc2ccccc2)n(C)c1=O | ? | -50% | 8% | -1% | ? | -29% | ? | -4.4%
NS(=O)(=O)c1ccc(CCN=C(NS(=O)(=O)c2cccs2)c2ccccc2)cc1 | 18% | · | 14% | 1% | · | 7% | -27% | ·
CSCCC(=O)N1CCC(n2nccc2NC(=O)CCCc2ccccc2)CC1 | 25% | -10% | -9% | 2% | · | · | · | ·
Cc1c(Cl)cccc1NC(=O)N1CCOc2ccccc21 | -17% | · | · | · | 3% | 13%[46.1 µM] | · | -2.8%
Cc1cccc(CCNC(=O)c2ccc(CSCc3cccc(Cl)c3)o2)c1 | -23% | · | · | · | -3% | -16%[46.1 µM] | · | -6.8%
Cc1cc2nc(C)n(CCCNC(=O)Nc3ccc(C#N)cc3)c2cc1C | -16% | -5% | -9% | 2% | -6% | 19% | ? | -0.9%

Reprinted from the part before: 5 compounds, then new ones.
compound | StopGo reporter | NS1 inh | RE007 growth inh | SARS PLP yeast | Cruzain inh noDet | LASV entry inh | MARV entry inh | Cruzain inh Det
NS(=O)(=O)c1ccc(CCN=C(NS(=O)(=O)c2cccs2)c2ccccc2)cc1 | 18% | · | 14% | 1% | · | 7% | -27% | ·
CSCCC(=O)N1CCC(n2nccc2NC(=O)CCCc2ccccc2)CC1 | 25% | -10% | -9% | 2% | · | · | · | ·
Cc1c(Cl)cccc1NC(=O)N1CCOc2ccccc21 | -17% | · | · | · | 3% | 13%[46.1 µM] | · | -2.8%
Cc1cccc(CCNC(=O)c2ccc(CSCc3cccc(Cl)c3)o2)c1 | -23% | · | · | · | -3% | -16%[46.1 µM] | · | -6.8%
Cc1cc2nc(C)n(CCCNC(=O)Nc3ccc(C#N)cc3)c2cc1C | -16% | -5% | -9% | 2% | -6% | 19% | ? | -0.9%
O=C(C1CCCCC1)N1CCN(c2ccnc3cc(Cl)ccc23)CC1 | 28µM* | -34% | ? | -4% | · | 7.9µM* | ? | ·
COc1ccc(C(=O)Nc2nnc(SCC(=O)NC3CCCC3)s2)c(OC)c1 | -11% | -4% | -6% | 1% | · | · | · | ·
COc1cc(CN2CC(=O)N(c3ccc(C)c(Cl)c3)C2=S)cc(OC)c1OC | -23% | 5% | 5% | -4% | · | -32%[46.1 µM] | -17%[46.1 µM] | ·
CCOC(=O)[C@@H]1[C@H]2COc3ccc(Br)cc3[C@H]2N2C(=O)N(c3ccc(F)cc3)C(=O)[C@]12C | -14% | 28% | -12% | -4% | · | · | · | ·
Cc1cc(C)c(S(=O)(=O)N2CCCOC2CNC(=O)C(=O)NCc2cccnc2)c(C)c1 (stereo unspecified) | -10% | · | 2% | 0% | · | -1% | 25%[46.1 µM] | ·
CCOc1ccc(C(C(=O)NC2CCCCC2)N(C(=O)c2csnn2)C2CC2)cc1 (stereo unspecified) | 23% | -7% | 12% | 2% | · | 1% | -8%[46.1 µM] | ·
Cc1cccc(N(C)C(=O)CCNS(=O)(=O)c2ccc3c(c2)CCN3C(=O)C2CC2)c1 | -9% | · | · | · | 22% | -14%[46.1 µM] | · | -1.5%
O=C(Nc1ccccc1)OC1CCC2CC1CCC2OC(=O)Nc1ccccc1 (stereo unspecified) | 0% | ? | 28% | -40% | ? | ? | ? | -4.6%
CNS(=O)(=O)c1cccc(C(=O)OCC(=O)Nc2nc(OC)cc(OC)n2)c1 | 9% | · | 11% | -2% | · | -25% | ? | ·
O/N=C1\CC2(Cc3nonc31)OCCO2 | -23% | -3% | -9% | -5% | -7% | 3% | 7% | 4.8%
Cc1ccn2c(=O)cc(COc3ccc(NC(=O)COc4ccc(C)c(C)c4)cc3)nc2c1 | -15% | · | · | · | 10% | -12%[46.1 µM] | · | 2.3%
O=C(CSc1oc(-c2cccs2)nc1S(=O)(=O)c1ccccc1)NC1CCCCC1 | 65%[activator] | 9% | -5% | -6% | -4% | -29% | ? | -5.5%
O=[N+]([O-])c1cc(CN2CCN(c3cccc(C(F)(F)F)c3)CC2)c2cccnc2c1O | -15% | · | -8% | -21% | · | ? | ? | ·
COC(=O)c1[nH]c2ccc(Br)cc2c1NC(=O)CN1CCN(C2CCCCC2)CC1 | 32µM* | -6% | 2% | -1% | 4% | ? | 6.5µM* | -7.0%
CCOC(=O)c1cc(-c2ccc(C)cc2)n(CC(=O)Nc2cc(C)ccc2C)c1C | -6% | · | · | · | -2% | · | -9%[46.1 µM] | 1.4%
COc1ccc(N2CCN(C(=O)C3CCN(Cc4nc(-c5ccc(Cl)cc5)oc4C)CC3)CC2)cc1 | -16% | · | · | · | -10% | 13%[46.1 µM] | ? | 1.4%
COC(=O)N/N=C(C)/C=C/c1ccccc1 | 29% | · | 6% | · | · | 1% | 7% | ·
CCOc1ccccc1NC(=O)NCc1ccccc1F | 21% | -2% | 10% | 1% | · | · | · | ·
O=C(Nc1cccc(F)c1)/C(=C\c1cccnc1)NC(=O)c1cccs1 | -20% | 13% | -10% | 3% | -4% | 11% | 0% | 0.0%
COc1ccc(N2CCN(C(=O)COC(=O)CCS(=O)(=O)c3ccc(C)cc3)CC2)cc1 | -24% | · | 19% | 2% | · | ? | -8% | ·
COc1ccccc1N1CCN(C(CNS(=O)(=O)c2ccc(C)cc2)c2cccnc2)CC1 (stereo unspecified) | ? | -9% | 10% | -11% | 4% | 1% | ? | 6.0%
COc1cccc(C(C(=O)NC2CCCC2)N(C(=O)CNC(=O)c2ccco2)c2cccnc2)c1 (stereo unspecified) | 9% | 9% | -10% | 2% | · | -12%[46.1 µM] | -10%[46.1 µM] | ·
CCSc1nnc(NC(=O)CSc2nc3c(c(=O)n2CCOC)SC(C)C3)s1 (stereo unspecified) | ? | 2% | -2% | 1% | · | · | · | ·
COc1cccc(C(=O)NCCn2ccc3ccccc32)c1 | 28% | -40% | 26% | -10% | -4% | ? | 31% | -1.0%
Clc1ccc(SCCCCn2ccnc2)cc1 | ? | -49% | -10% | -3% | 0% | 4% | 10% | 2.7%
O=S1(=O)c2ccccc2N(Cc2cccc(Cl)c2)c2ccccc21 | ? | · | · | · | 16% | 6%[46.1 µM] | · | -1.2%
Oc1ccc(-c2n[nH]c(=S)n2Cc2ccccc2)cc1 | -21% | -19% | 14% | 2% | -6% | -5% | 5% | 0.5%
Fc1ccc(C2=CC(c3ccc(F)cc3)n3c(nc4ccccc43)N2)cc1 (stereo unspecified) | 7% | · | · | · | 9% | ? | · | -4.2%
COc1cc(-c2c(NC(=O)c3ccco3)oc3c(C)cccc3c2=O)cc(OC)c1OC | -28% | -3% | -3% | -5% | · | ? | 11%[46.1 µM] | ·
O=C(Nc1nc2ccccc2s1)Nc1ccc(F)cc1F | 21% | 3% | -4% | 12% | · | -15%[46.1 µM] | ? | ·
O=C(Nc1ccc2c(c1)OCO2)c1ccccc1 | 0% | 7% | -15% | -6% | · | ? | ? | ·
COc1cc(C2C(C#N)=C(N)N(c3sc4c(c3C#N)CCCC4)C3=C2C(=O)CC(C)(C)C3)cc(OC)c1OC (stereo unspecified) | ? | -6% | -6% | 2% | ? | ? | ? | -4.8%
Cc1ccc(-n2nc3c(=O)n(CC(=O)NCCC4=CCCCC4)nc(C)c3c2C)cc1 | ? | 3% | 20% | 2% | · | · | · | ·
CC1(C)CC(NC(=O)C2CCN(S(=O)(=O)c3ccccc3C(F)(F)F)CC2)CC(C)(C)N1 | -1% | 19% | -4% | 10% | · | 8% | -16% | ·
CC(=O)c1ccc(N2CCN(S(=O)(=O)c3c(C)[nH]c(C)c3C(=O)N3CCCC3)CC2)cc1 | 21% | -15% | -7% | -1% | · | 5%[46.1 µM] | 8%[46.1 µM] | ·
CCn1nc(C)c(CN2CCCC(CNS(=O)(=O)c3ccc(OC)cc3)C2)c1C (stereo unspecified) | 5% | ? | 6% | 1% | · | 10% | 4% | ·
O=C(CSc1nnc(-c2ccncc2)o1)Nc1nncs1 | 7% | 0% | 12% | -1% | · | 0% | 1%[46.1 µM] | ·
CCN(CC)C(=O)CC(c1ccc(F)cc1)c1ccc(OC(C)C)cc1 (stereo unspecified) | · | -11% | · | 22% | 36% | · | · | -5.0%
